From PubChem
TRPML1 blocker: inhibitors of human TRPML1 channel; Q9GZU1; TRPML1-inducible cells, Ca2+ dye fluorescence, FDSS; stronger effect = lower value; inhibition of EC80 agonist-evoked calcium signal; activity change, negative = inhibition, % (concentration not given with the values); hit rate 0.02% among 390,000; AID 624415; in the data active means activity change below about -50%; inconclusive means about -30% to -50%; inactive means above about -30%;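 also: stimulus is agonist 54-4 at its EC80 concentration; % is scaled to controls: 0 for no effect and ±100 for the full control effect; compound concentration not given in the record; the text of the record puts the active cut at -80%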
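Calcium fluorescence in TRPML1-DL cells induced overnight with Tet: a 110 s read after compound pin addition, then a 110 s antagonist read after challenge with 54-4 at 4 uM final (EC80).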
PINK1 expr mod: changes PINK1 expression | hit rate 0.2% among 410,000 | AID 624263 | PINK1 immunofluorescence, high-content cytometry, 24 h | Potency, µM (top dose mostly 76.6 µM), for inactives: top-dose activation (PINK1 increase), most hits filed as activators; active = well fitted activation curve with a large enough effect; inconclusive = small, poorly fitted or top-dose-only effect; inactive = flat fitted curve, though single readings scatter; cell line not stated here;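 also: potency is read from the fitted curve at half-maximal effect; % of control where 0% means no effect; nearly all actives have a fitted effect of over 65% in size; a mitochondrial uncoupler was the plate control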
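Compound titrations (5 concentrations, 24 h) on a stable cell line; DMSO and CCCP controls. Endpoint: fixed-cell PINK1 immunofluorescence with mitochondrial, cell and nuclear markers, scanned by microplate cytometer.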
TRPV1 potentiator: human TRPV1 potentiation. Q8NER1. TRPV1-expressing cells, Fluo-8 calcium influx, capsaicin EC20 potentiation; host cell line not named in the record; control for the full effect not named in the record. potentiation, % at 8.33 µM. hit rate 0.02% among 320,000; active means potentiation above 80%; inconclusive means 30% to 80%; inactive means below 30%; also: 0% is about no effect
Target sequence (Q8NER1 whole entry, looked up): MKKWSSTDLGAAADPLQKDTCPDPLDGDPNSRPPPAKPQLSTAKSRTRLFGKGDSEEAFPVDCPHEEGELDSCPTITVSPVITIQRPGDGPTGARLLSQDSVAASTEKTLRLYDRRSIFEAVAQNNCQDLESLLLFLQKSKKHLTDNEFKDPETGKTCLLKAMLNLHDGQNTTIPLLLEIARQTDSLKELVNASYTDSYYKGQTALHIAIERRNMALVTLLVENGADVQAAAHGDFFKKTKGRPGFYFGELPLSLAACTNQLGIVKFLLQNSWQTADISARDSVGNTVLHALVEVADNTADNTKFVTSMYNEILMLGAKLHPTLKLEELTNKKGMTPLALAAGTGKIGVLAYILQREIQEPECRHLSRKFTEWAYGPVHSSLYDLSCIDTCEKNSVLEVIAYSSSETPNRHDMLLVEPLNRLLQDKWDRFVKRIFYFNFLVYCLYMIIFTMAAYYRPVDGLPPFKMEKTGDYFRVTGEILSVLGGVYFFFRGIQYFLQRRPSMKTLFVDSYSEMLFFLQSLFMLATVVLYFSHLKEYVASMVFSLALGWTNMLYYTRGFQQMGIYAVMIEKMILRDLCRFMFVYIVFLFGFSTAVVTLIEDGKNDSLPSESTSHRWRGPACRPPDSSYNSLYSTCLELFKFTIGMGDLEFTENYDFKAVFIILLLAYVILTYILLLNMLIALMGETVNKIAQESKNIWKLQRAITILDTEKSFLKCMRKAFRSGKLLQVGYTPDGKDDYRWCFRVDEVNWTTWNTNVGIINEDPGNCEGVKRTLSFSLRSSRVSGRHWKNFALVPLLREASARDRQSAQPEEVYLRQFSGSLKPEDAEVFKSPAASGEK
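Cells expressing TRPV1 were dye-loaded with Fluo-8 and read kinetically: 10 s baseline, 3 min after compound (agonist portion), then 2 min after EC20 capsaicin (allosteric enhancer portion). Calcium-bound dye fluorescence at 480/520 nm.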
ClpP mod: qHTS Assay for Activators of ClpP; Potency, µM (top dose mostly 57.5 µM), for inactives: top-dose activity change, negative = active; hit rate 1.9% among 340,000; ATP-dependent Clp protease proteolytic subunit (Bacillus subtilis (strain 168)), P80244; purified B. subtilis ClpP, FRET peptide cleavage, 20 min; active = well fitted falling curve with a large enough effect; inconclusive = small, poorly fitted or top-dose-only effect; inactive = no such curve, though single readings can be large or run the other way; also: potency is read from the fitted curve at half-maximal effect; the source files actives as falling curves though it sought activators and does not explain the sign; nearly all actives have a fitted effect of over 65% in size; many hits overshoot -100%
Target sequence (P80244 whole entry, looked up): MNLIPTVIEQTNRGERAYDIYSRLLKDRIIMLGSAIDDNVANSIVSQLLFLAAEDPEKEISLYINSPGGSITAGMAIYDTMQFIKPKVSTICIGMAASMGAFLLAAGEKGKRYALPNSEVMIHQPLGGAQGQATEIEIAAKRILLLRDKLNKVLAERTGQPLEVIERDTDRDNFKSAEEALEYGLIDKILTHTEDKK
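Purified B. subtilis ClpP, 10 microg/mL final in Tris/HCl pH8 with KCl, BSA, glycerol and Tween-20, cleaved an Abz/nitrotyrosine-quenched decapeptide. Fluorescence (ex 320, em 430) was read at 0 and 20 min at room temperature. Delta was normalized to 5.8 microM ADEP and DMSO/no-enzyme controls.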
Sfp PPTase inh: blocks B. subtilis Sfp PPTase activity; Potency, µM, inactives show max response, negative = inhibition, actives largely listed as inhibitors; Q9F4F7; Biochemical Sfp PPTase activity, qHTS; hit rate 3.5% among 310,000; active = well fitted inhibition curve with a large enough effect; inconclusive = small, poorly fitted or top-dose-only effect, or another doubt; inactive = no such curve, though single readings can be large or run the other way;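 also: the enzyme is Sfp with the accession as filed and its product quenches rhodamine fluorescence; potency is read from the fitted curve at half-maximal effect; 0% = enzyme reaction without inhibitor and -100% = no enzyme wells; top concentration of the series not given in the record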
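Step 1, compound plus 15 nM Sfp-PPTase, 15 min, room temperature. Step 2, add rhodamine-CoA (5 uM) and BHQ-2-YbbR (12.5 uM). Step 3, read 525/598 nm fluorescence at 0 and 30 min.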
TRPML1 ag: agonists of human TRPML1 channel; Q9GZU1; TRPML1-expressing cells, Ca2+ dye fluorescence, FDSS; host cell line not named in the record; reference of the full effect not given here; activation, % (no concentration beside the values); hit rate 0.12% among 410,000; in the data active = activation above about 50%; inconclusive = about 30% to 50%; inactive = below about 30%; also: 0% is about no effect; the text of the record puts the active cut at 80%
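Kinetic FDSS Ca2+ read in Tet-induced TRPML1-DL cells (ABD Ca8 dye plus quencher, 45-90 min RT loading): baseline, then compound, then 110 s agonist window; EC80 agonist 54-4 at 4uM final added afterwards for a 110 s antagonist window.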
Menin MLL FP FL: inhibitors of human menin-MLL interaction, wild-type MLL peptide | Fluorescence polarization, fluorescein-MLL peptide displacement from menin | 290,000 tested, under 10 active | FP activity change, % at 61.4 µM | AID 1766; inconclusive = falling polarisation curve, or a change in total fluorescence; inactive = total fluorescence flat and polarisation flat or rising; no compound was filed as active; the % refers to the polarisation; negative = inhibition;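 also: % of control where 0% means no effect; inhibitors lower the polarisation; unlabelled MLL peptide was the positive control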
Starred values were filed as active, the others as inactive; ? = inconclusive; · = not tested or not shown; & = joins results of further samples; [ ] = dose if it differs, or a comment. The order is random. Share with any hit: about 4.4%.

No.	canonical_smiles	Sfp PPTase inh	ClpP mod	PINK1 expr mod	TRPML1 blocker	Menin MLL FP FL	TRPML1 ag	TRPV1 potentiator
1	Cc1ccc(NC(=O)CN(C)C(=O)COc2c(Cl)cc(Cl)c3ccc(C)nc23)cc1	0%	?	2.0%	21	-3.1	-1.2	-2
2	CC1CN(C(=O)c2cccc(S(=O)(=O)Nc3ccc(Cl)cc3)c2)CC(C)O1 (configuration not stated)	11%	-1.4%	-0.7%	-16	0.4	1.4	1
3	O=C(COC(=O)c1cc(=O)c2ccccc2o1)NC1CCCC1	5%	·	-0.4%	14	3.6	0.4	1
4	O=C(COc1ccc(Cl)cc1)N(Cc1ccco1)Cc1ccco1	·	-1.4%	0.6%	31	·	3.6	·
5	CN(C)CCn1c(NCc2ccc3c(c2)OCO3)nc2ccccc21	23%	-4.1%	-0.2%	·	-3.8	·	-7
6	COc1ccc(CC(=O)Nc2cccc(-c3cn4ccccc4n3)c2)cc1	1%	20µM*	3.9%	24	2.5	3.2	4
7	COc1cc(S(=O)(=O)NCc2ccccc2)ccc1-n1cnnn1	17%	·	1.2%	15	6.1	-0.5	-1
8	COc1ccccc1NC(=O)N1CCCC(C(=O)Nc2cccc(C)c2C)C1 (configuration not stated)	-1%	1.8%	-1.4%	1	-1.5	0.2	6
9	CCC(=O)N1CCC1(C)C(=O)Nc1cc(-c2ccccc2)nn1C (configuration not stated)	·	-1.1%	1.8%	·	·	-0.4	·
10	C=CCNC(=O)CN1c2cccc3cccc(c23)S1(=O)=O	-8%	-26%	1.0%	-14	-0.2	-0.5	-5
11	COc1ccc2c(c1)CCC1C2CC[C@@]2(C)C(O)CCC12 (some centres not stated)	5%	·	1.5%	·	0.2	·	·
12	Cc1ccc(N(Cc2ccccc2)C(=O)c2cccc(S(=O)(=O)N3CCN(C)CC3)c2)cc1	·	-3.0%	0.6%	22	·	0.6	-4
13	Cn1ncc2c(NNC(=O)c3ccc(Cl)c(Cl)c3)ncnc21	7%	-0.9%	0.5%	-15	-0.4	-0.1	3
14	Cn1nc(C(=O)OCC(=O)Nc2ccc(SC(F)F)cc2)c2ccccc2c1=O	·	3.1%	-3.5%	-10	·	0.3	·
15	O=C(CCNC(=O)c1ccco1)Nc1ccc(Cl)cc1F	8%	·	-0.9%	3	-2.4	-0.5	7
16	O=C(NC(=S)NC1CCSC1=O)c1ccccc1F (configuration not stated)	24%	0.6%	-1.0%	-25	-2.8	-0.6	-3
17	CCOC1=C2CN(S(=O)(=O)c3ccc(C)cc3)[C@H](c3ccccc3)C[C@H]2[C@H]2C(=O)N(c3ccccc3)C(=O)[C@H]2C1	·	-1.1%	-0.1%	-11	·	23	·
18	CCOc1ccc(NC(=O)C(CC)n2nc(C)c3c(C)n(-c4ccccc4)nc3c2=O)cc1 (configuration not stated)	9%	4.5%&-10%	-0.8%&-1.2%	41&0	·	-0.6&0.7	10
19	CC(=O)N1CCc2cc(S(=O)(=O)NC(Cc3ccccc3)C(=O)NCc3ccc(C)cc3)ccc21 (configuration not stated)	·	-1.9%	0.0%	0	·	0.0	·
20	COc1ccc(S(=O)(=O)N2CCOC2CNC(=O)C(=O)NCCc2ccccc2)cc1OC (configuration not stated)	21%	-0.2%	0.1%	-1	-0.7	0.0	-23
21	COc1ccc(OC)c(NC(=O)CC2C(=O)NCCN2C(=O)Nc2cccc(Cl)c2)c1 (configuration not stated)	8%	-2.2%	14%[38.3 µM]	-13	-0.1	0.1	13
22	CCc1ccc(NC(=O)CC2C(=O)N(c3cccc(OC)c3)C(=O)N2Cc2ccco2)cc1 (configuration not stated)	·	0.8%	1.9%	2	·	-0.1	·
23	NNC(=O)CC1=NNC(=O)C1	·	-2.0%	2.2%	14	·	0.3	·
24	Cc1ccc(OCC(O)CN2C(=O)NC(C)(C)C2=O)cc1C (configuration not stated)	12%	0.1%	-1.0%	5	-2.2	0.4	-32
25	CCCCCn1c(CN2CCN(c3ccc(OC)cc3)CC2)nc2c1c(=O)[nH]c(=O)n2C	·	-6.1%	9.6%	-12	·	-0.4	·
26	COc1ccc(CNC(=O)CN(C(=O)Cn2nnc(-c3ccccc3F)n2)c2ccc(C)cc2)cc1	9%	-1.4%	-0.5%	2	-2.0	-0.3	-13
27	O=C(Nc1ccc(F)cc1)C1CCCN(c2ncnc3c2nc2n3CCCCC2)C1 (configuration not stated)	·	-0.5%	4.1%	-17	·	0.6	·
28	CN(C)CCCn1c(=O)n(Cc2ccccc2)c(=O)c2c3c(sc21)CCCCC3	-14%	2.2%	1.2%	0	3.2	1.6	-13
29	COc1cccc(CNC(=O)Cn2c(=O)oc3cc(S(=O)(=O)N4CCCCC4)ccc32)c1	6%	5.1%	1.1%	-13	·	1.2	-3
30	CCC12CN3CC(C)(CN(C1)C3c1c[nH]c3ccccc13)C2=O (configuration not stated)	·	0.8%	0.5%	18	·	-0.3	·
31	Cc1ccc2nc(SCc3ccccc3)c(C=O)c(=O)n2c1	-2%	-0.7%	10%	43	-1.5	-0.6	-11
32	CCOC(=O)c1c(NC(=O)CSc2nnc3ccccn23)sc2c1CCC2	-3%	-3.4%	0.6%	-2	9.3	3.3	5
33	O=C(NCCN1C(=O)S/C(=C\c2ccc(Cl)c(Cl)c2)C1=O)C1COc2ccccc2O1 (configuration not stated)	6%	-7.3%	1.8%	9	4.8	-0.7	-12
34	Cc1ccccc1NC(=O)c1ccccc1NC(=O)c1ccccc1Cl	·	0.5%	0.6%	-6	·	0.0	·
35	CCN1N=C(C)C=C(c2ccccc2)n2c1nc1ccccc12	14%	3.5%	-0.3%	·	-1.6	·	4
36	CCNCCNC(=O)c1c(O)c2c([nH]c1=O)CCCC2	15%	?	8.0%[38.3 µM]	-3	0.7	0.4	16
37	CCNC(=O)COc1cc(C)c(Cl)c(C)c1	1%	-1.3%	-0.4%	32	4.3	3.5	-15
38	CCc1n[nH]c(=O)c2cc3cc(OC)ccc3n12	6%	·	-1.1%	11	0.8	1.1	20
39	CC(Oc1cccc(Cl)c1)C(=O)Nc1ccc(S(=O)(=O)Nc2ncccn2)cc1 (configuration not stated)	·	-2.2%	0.4%	-6	·	-0.5	5
40	COC(=O)c1cc(OC)c(OC)cc1NCC(=O)Nc1ccc(C)cc1	3%	?	1.1%	5	3.6	2.3	4
41	CN(C)CCCn1c2c(c(SCC(=O)Nc3ccc4c(c3)OCCO4)nc1=O)CCCC2	·	-1.8%	-0.5%	6	·	-0.3	·
42	O=C(NCCC1=CCCCC1)c1c(O)nc2sccn2c1=O	·	-1.4%	7.0%	4	·	-0.2	-4
43	Cc1ccc(-n2[nH]c(C)c(C=Nc3ccc(S(=O)(=O)Nc4nccs4)cc3)c2=O)cc1	20%	·	·	·	8.6	·	6
44	COc1ccccc1N1CCN(C/C(C)=C/c2ccccc2)CC1	7%	-1.4%	-0.1%[38.3 µM]	17	1.7	2.3	3
45	O=C1NC[C@H](CCCCN2C[C@H](Cc3ccccc3)N(CC3CCCCC3)C(=O)C2=O)N(CCC2CCCCC2)C1=O	·	1.2%	0.1%	·	·	-0.6	·
46	O=C(COC(=O)CNC(=O)c1ccccc1)Nc1ccc(Cl)cc1C(F)(F)F	1%	-1.6%	1.4%	-6	2.4	0.4	5
47	O=C(c1csnn1)N1CCC2(CC1)CCN(c1ccccc1)CC2	8%	·	0.2%	·	-7.5	·	·
48	O=C(COC(=O)c1ccco1)NC(c1ccccc1)c1ccccc1	0%	-0.2%	1.1%	22	2.4	3.6	11
49	C/C=C1\COC(C(=O)NCCOCCO)(C(F)(F)F)C=C1C=C1CCCCC1 (configuration not stated)	-4%	·	·	-7	-2.0	0.7	·
50	COc1ccc(N2CCN(c3ncnc4c3cnn4C)CC2)cc1	·	0.5%	0.4%	-2	·	-0.6	·
51	CNC(=O)NC(=O)CSc1ccc(S(=O)(=O)N(C)C2CCCCC2)cn1	·	-41%	0.0%	2	·	-0.3	1
52	CCCCn1c(N)c(N(CCOC)C(=O)CC(NC(=O)c2ccccc2)c2ccccc2)c(=O)[nH]c1=O (configuration not stated)	·	-11%	0.1%	8	·	-0.3	-3
53	Cc1cc(C(=O)N2CCN(Cc3ccc4c(c3)OCO4)CC2)on1	6%	0.9%	0.5%	-11	0.2	-0.4	26
54	Cc1ccc(-c2onc(C)c2C)cc1S(=O)(=O)NCc1ccc(N(C)C)cc1	·	0.6%	3.0%	23	·	2.8	·
55	CCCN1CNc2c(c(=O)[nH]c(=S)n2CCC(C)(C)C)C1	·	-4.6%	1.4%	·	·	-0.1	·
56	COc1cc(/C=N/Nc2cccc3cccnc23)cc(OC)c1O	50µM*	0.2%	8.6%	7	-4.8	1.7	-2
57	CC(C)CC(=O)NCc1ccc2[nH]c3c(c2c1)CCCC3	6%	-15%	1.4%	15	?	1.2	9
58	CCOc1ccc(OCC)c(NC(=O)CN(C)S(=O)(=O)c2ccc3nc(C)sc3c2)c1	-7%	-29%	-1.8%	24	1.5	2.0	-8
59	COc1ccc(CCNC(=O)c2ccco2)cc1	-9%	-1.0%	-1.5%	-23	-1.0	0.7	-7
60	O=C(CCCn1c(=S)[nH]c2ccccc2c1=O)NCCSCc1ccccc1	3%	1.3%	1.9%	?	0.2	-0.3	2
61	CCOc1ccc(N(CC(=O)Nc2ccc(C)c(C)c2)S(C)(=O)=O)cc1	-2%	4.1%	-1.5%	3	-0.3	0.3	-10
